High-throughput results deposited in PubChem by National Center for Advancing Translational Sciences (NCATS).
Menin-MLL FL inh: displaces fluorescein MLL peptide from human menin; Fluorescence polarization, fluorescein-MLL peptide displacement from menin; AID 1766; FP activity change, % at 61.4 µM; 290,000 tested, under 10 active; inconclusive = falling polarisation curve, or a change in total fluorescence; inactive = total fluorescence flat and polarisation flat or rising; no compound was filed as active; the % refers to the polarisation; negative = inhibition;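 note: % of control where 0% means no effect; inhibitors lower the polarisation; unlabelled MLL peptide was the positive control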
Numbers without * were called inactive; ? = inconclusive; & = joins results of further samples; [ ] = dose if it differs, or a comment.

molecule	Menin-MLL FL inh
Cc1noc(C)c1-c1ccc2ncnc(NC(C)c3ccccc3)c2c1 (stereo not given)	1.2
CC(C)[C@H](NC(=O)[C@@H](Cc1c[nH]c2ccccc12)NC(=O)[C@H](Cc1ccc(O)cc1)NC(=O)[C@@H](N)CC(=O)O)C(=O)N[C@H](Cc1c[nH]c2ccccc12)C(=O)N[C@H](Cc1c[nH]c2ccccc12)C(=O)N[C@@H](CCCCN)C(N)=O	?
C[C@@H]1CCC2[C@](C)(CO)C(O)CC[C@@]2(C)[C@@]12CC[C@](CO)(CCO)O2 (stereo not given in full)	-1.1
CCN1C(C)=C(C(=O)OC)C(c2ccccc2)N2C(=O)[C@@]3(C(=O)OC)O[C@@]12C1C(=O)CCCC13 (stereo not given in full)	-0.7[11.7 µM]
CC(C)C[C@H](NC(=O)[C@@H]1CCCN1C(=O)[C@H](Cc1ccccc1)NC(=O)[C@H](C)NC(=O)[C@H](CCC(=O)O)NC(=O)[C@H](C)NC(=O)[C@H](CO)NC(=O)[C@H](CCC(=O)O)NC(=O)[C@H](CC(=O)O)NC(=O)[C@H](CCC(=O)O)NC(=O)[C@H](C)NC(=O)CNC(=O)[C@H](CC(N)=O)NC(=O)[C@@H]1CCCN1C(=O)[C@H](Cc1ccc(O)cc1)NC(=O)[C@@H](NC(=O)[C@H](CCCCN)NC(=O)[C@@H](NC(=O)[C@@H]1CCCN1C(=O)[C@@H](N)CCCNC(=N)N)C(C)C)C(C)C)C(=O)N[C@@H](CCC(=O)O)C(=O)N[C@@H](Cc1ccccc1)C(=O)O	6.6
CCN1CCc2c(OCC(=O)Nc3ccc4c(c3)OCCO4)cccc2C1=O	1.3
COCCCn1c(-c2ccc(OC)cc2)nc2nc3ccccc3nc21	2.1
COc1cc(N)c(Cl)cc1C(=O)OCCCN1CCCCC1	?
CCCCc1c(C)c(C#N)c2nc3ccccc3n2c1Cl	-1.0
COc1cc(SC)ccc1C(=O)N1CCC(Cc2ccccc2)CC1	3.1
O=C(O)c1ccc(S(=O)(=O)N[C@H](Cc2ccc([N+](=O)[O-])cc2)C(=O)O)cc1	3.7
NC1C(O)OC(CO)[C@@H](O)[C@@H]1O[C@H]1O[C@@H](C(=O)O)C(O)C(O)C1O (stereo not given in full)	-4.8
O=C(O)CC12CSc3[nH]c(=O)sc3C1c1ccccc1OC2=O (stereo not given)	-0.3
COc1ccccc1CN1CCC2(CC1)CCN(S(=O)(=O)c1ccccc1)CC2	3.4
CN(C)CCN1C(=O)c2ccccc2N(C)c2ccccc21	0.2
Cc1cc(C)nc(-n2nc(C)cc2NC(=O)c2cccc(S(=O)(=O)N3CCCCC3)c2)n1	4.0
CC(=O)C1=C(C)NC(SCC(=O)c2ccc(-c3ccccc3)cc2)=C(C#N)C1c1cccnc1 (stereo not given)	?
NS(=O)(=O)c1cc2c(cc1Cl)N[C@@H](CC1CCCC1)NS2(=O)=O	5.1[24.8 µM]
Cc1ccccc1-c1cncnc1Nc1ccccc1	3.0
COc1cccc(C(=O)COc2ccc3c(C)c(Cc4ccccc4)c(=O)oc3c2C)c1	4.0
Nc1c[n+](N2CCOCC2)no1	-4.6
CN1CCN(c2ncc3nc(-c4cc(F)cc(F)c4)c(=O)n(C4CC4)c3n2)CC1	-8.8
COc1ccccc1-c1cc(NCc2cnc(C)cn2)ncn1	-1.4
CCOC(=O)[C@]1(C(NC(=O)OC)c2ccccc2)CCCC1=O (stereo not given in full)	3.1[11.7 µM]
COc1cc2c(cc1OC)C(=O)OC2	-0.5
COC(=O)/C=C/c1ccc(C(=O)NCC(=O)N[C@@H](CCC(=O)OC)C(=O)N[C@@H](CC(C)C)C(N)=O)cc1	-0.2
CCOC(=O)N/N=C1/C[C@@H](O)[C@@H](O)[C@@H]2[C@@H]3C(=O)N(C4CCCCC4)C(=O)[C@H]3CC[C@H]12	-1.5[11.7 µM]
COc1ccccc1CNc1ccnc(-c2ccccc2Cl)n1	-2.7
O=c1c(-c2cccs2)nc2cnc(N3CCOCC3)nc2n1Cc1ccc(F)cc1	?
O=c1c2ccccc2oc2nc3ccn(Cc4ccncc4)c(=O)c3cc12	0.6
COC(=O)[C@@]1(Cc2ccc(OC)cc2)[C@H]2c3cc(C(=O)N(C)C)n(CCF)c3C[C@H]2CN1C(=O)c1ccccc1	0.5
Cc1nc(N2CCOCC2)c2nc(-c3ccccc3)n(CCCN3CCOCC3)c2n1	0.8
Cn1cccc1C(=O)N1CCC2(CC1)CN(c1ccncc1)C2	-0.7
Cc1cccn2c(=O)c3cc(C#N)c(=N)n(Cc4ccncc4)c3nc12	-0.9
COCCn1c(=O)c(-c2ccc(OC)cc2)nc2cnc(Nc3ccccc3)nc21	8.0
O=C1C=CC(=O)c2c1ccc1c2ccc2ccccc21	0.7[24.8 µM]
O=C(OC1Cc2c(O)cc(O)cc2OC1c1cc(O)c(O)c(O)c1-c1c(C2Oc3cc(O)cc(O)c3CC2OC(=O)c2cc(O)c(O)c(O)c2)cc(O)c(O)c1O)c1cc(O)c(O)c(O)c1 (stereo not given)	?
Cc1ccc(NC(=O)c2ccc3ncsc3c2)cc1S(=O)(=O)N(C)C	5.3
CC[C@H](C)[C@H](NC(=O)[C@H](CO)NC(=O)[C@H](CC(C)C)NC(=O)[C@@H]1CCCN1C(=O)[C@@H]1CCCN1C(=O)[C@H](CC(=O)O)NC(=O)[C@@H](N)CC(=O)O)C(=O)N[C@@H](CC(=O)O)C(=O)N[C@@H](CC(C)C)C(=O)N[C@H](C(=O)N[C@@H](Cc1ccccc1)C(=O)N[C@@H](Cc1cnc[nH]1)C(=O)N[C@@H](CC(C)C)C(=O)N[C@@H](CC(C)C)C(=O)N[C@@H](CCCNC(=N)N)C(=O)N[C@H](C(=O)N[C@@H](CC(C)C)C(=O)N[C@@H](CC(C)C)C(=O)N[C@@H](CCC(=O)O)C(=O)N[C@@H](CC(C)C)C(=O)N[C@@H](C)C(=O)N[C@@H](CCCNC(=N)N)C(=O)N[C@H](C(=O)N[C@@H](CCC(N)=O)C(=O)N[C@@H](CO)C(=O)N[C@@H](CCC(N)=O)C(=O)N[C@@H](CCCNC(=N)N)C(=O)N[C@@H](CCC(=O)O)C(=O)N[C@@H](CCCNC(=N)N)C(=O)N[C@@H](C)C(=O)N[C@@H](CCC(=O)O)C(=O)N[C@@H](CCC(N)=O)C(=O)N[C@@H](CC(N)=O)C(=O)N[C@@H](CCCNC(=N)N)C(=O)N[C@H](C(=O)N[C@H](C(=O)N[C@@H](Cc1ccccc1)C(=O)N[C@@H](CC(=O)O)C(=O)N[C@@H](CO)C(=O)N[C@H](C(N)=O)C(C)C)[C@@H](C)CC)[C@@H](C)CC)[C@@H](C)O)[C@@H](C)O)[C@@H](C)O	-0.3
CCOC(=O)c1cnc2cc(F)c(F)cc2c1N1CCN(C)CC1	-1.7
O=C(O)[C@H]1CN(C/C=C/P(=O)(O)O)CCN1	1.5&-8.2
CC(N)=NCCCC[C@@H](N)C(=O)O	-2.3
Cc1cc(F)c(Nc2ncnc3cc(OCc4ccccc4)ccc23)cc1O	0.6
COc1ccc(CNc2ncnc3ccc(-c4ccc5c(c4)OCO5)cc23)c(OC)c1	?
CCCCc1nc2ccccc2c(=O)n1NC(=O)c1c(O)c2cccc3c2n(c1=O)CCC3	6.3
Nc1c(S(=O)(=O)c2cccc(Cl)c2)c2nc3ccccc3nc2n1/N=C/c1ccc(O)c(O)c1	0.4
O=C(O)CCC(=O)N1CCCC1C(=O)O (stereo not given)	-0.5
CN(C)Cc1ccccc1-c1ccc2ncnc(NCc3ccccc3)c2c1	4.1
NCC1OC(n2cnc3c(=O)[nH]c(N)nc32)C(O)C1O (stereo not given)	-2.4
COC(=O)C/C=C\[C@@H](C)[C@@H](/C=N\OCC[C@H]1C=C[C@H](OC(C)=O)[C@@H](COC(C)=O)O1)NS(=O)(=O)c1ccc(C)cc1	0.9[11.7 µM]
O=C(Nc1ccccc1)N1CCCC2(CCN(C(=O)c3ccco3)CC2)C1	-7.5
COC1/C=C/OC2(C)Oc3c(C)c(O)c4c(O)c(c(/C=N/N5CCN(C)CC5)c(O)c4c3C2=O)NC(=O)/C(C)=C/C=C/C(C)C(O)C(C)C(O)C(C)C(OC(C)=O)C1C (stereo not given)	12.2
CC(NC(=O)c1cc(=O)[nH]c2ccc(Br)cc12)c1ccccc1 (stereo not given)	1.0
COc1ccc(OC)c(S(=O)(=O)NC(N)=NCCc2ccccc2OC)c1	0.5
CC(=O)OC1CCC2(C)C3=C(CCC2C1(C)C)[C@@]1(C)CCC(C(C)CCC=C(C)C)[C@@]1(C)CC3 (stereo not given in full)	2.2
CCCCC1=CC2=C(c3ccco3)C(=O)C(C)(OC(=O)c3ccc(OC)cc3)C(=O)C2=CO1 (stereo not given)	6.9
O=C1C[C@@H](O)[C@@H](O)[C@H]2[C@@H]3C(=O)N(C[C@@H]4CCCO4)C(=O)[C@@H]3CC[C@H]12	3.3&3.4[11.7 µM]
CCCCNc1nc(C)nc2c1nc(-c1ccccc1)n2CCCN(C)C	0.3
COc1cccc2c3c(c(C)nc12)CC(CO)O3 (stereo not given)	-0.1
Cc1nc2cnc(Oc3ccccc3)nc2n(Cc2cccs2)c1=O	13.2

Next section:
| Structure | Menin-MLL FL inh |
| --- | --- |
| OCc1ccc(Cl)cc1Cl | -2.0 |
| COc1ccc(Oc2ncc3ncc(=O)n(Cc4cccc(OC)c4)c3n2)cc1 | 0.7 |
| CCOC(=O)C1CCN(C(=O)c2cn(-c3ccccc3)nc2-c2cccnc2)CC1 | -1.3 |
| CC(=O)N1CCC2(CC1)CCN(C(=O)Nc1cccc(C#N)c1)CC2 | -3.1 |
| CCCCC/C=C\C/C=C\CCCCCCCC(N)=O | -5.1&-3.5 |
| COC(=O)[C@@H]1C[C@H]2CC[C@H](O)C[C@H]2N1Cc1c(F)cccc1Cl | -5.5 |
| CN1CCN(c2ncncc2-c2ccccc2C(F)(F)F)CC1 | 0.9 |
| COC(=O)[C@@]1(Cc2ccc(OC)cc2)[C@H]2c3cc(C(=O)N(C)C)n(CCc4ccc(OC)c(Br)c4)c3C[C@H]2CN1C(=O)c1ccccc1 | 1.4&2.6 |
| O=C(c1cccc(F)c1)N1CCC2(CCCN(c3ccc(-c4ccccc4)cc3)C2)CC1 | 22.7 |
| Cc1ccc2oc(=O)c3cc(C(=O)N4CCN(C(=O)c5ccco5)CC4)sc3c2c1 | -4.2 |
| CCSc1ncnc2c1sc1nc(-c3ccco3)c3c(c12)CC(C)(C)OC3 | 3.8 |
| CC(C)[C@@H](CC(=O)N[C@@H]1CCCC[C@H]1C(=O)N[C@H](CC(=O)N[C@@H](CCC(=O)O)CC(=O)O)Cc1c[nH]c2ccccc12)NC(=O)C[C@H](CO)NC(=O)[C@@H]1CCCC[C@H]1N | -0.9 |
| Cc1oc(-c2ccccc2Cl)cc1-c1nn2c(-c3ccco3)nnc2s1 | 4.6 |
| CC(=O)Nc1ccc(OCCOCCOc2ccc(NC(C)=O)cc2)cc1 | -3.0 |
| COc1cccc2c1C(=O)c1c(O)c3c(c(O)c1C2=O)C[C@](O)(C(=O)CO)C[C@@H]3O[C@H]1C[C@H](N)[C@@H](O)[C@H](C)O1 | 4.6 |
| C=C(C)CSc1nc2nc(C)c(Br)cc2[nH]1 | -0.4 |

Some of the entries above in another layout.
| Menin-MLL FL inh | molecule |
| --- | --- |
| -4.2 | Cc1ccc2oc(=O)c3cc(C(=O)N4CCN(C(=O)c5ccco5)CC4)sc3c2c1 |
| 4.6 | Cc1oc(-c2ccccc2Cl)cc1-c1nn2c(-c3ccco3)nnc2s1 |
| 22.7 | O=C(c1cccc(F)c1)N1CCC2(CCCN(c3ccc(-c4ccccc4)cc3)C2)CC1 |
| -0.4 | C=C(C)CSc1nc2nc(C)c(Br)cc2[nH]1 |
| -3.0 | CC(=O)Nc1ccc(OCCOCCOc2ccc(NC(C)=O)cc2)cc1 |
| 4.6 | COc1cccc2c1C(=O)c1c(O)c3c(c(O)c1C2=O)C[C@](O)(C(=O)CO)C[C@@H]3O[C@H]1C[C@H](N)[C@@H](O)[C@H](C)O1 |

Next compounds.
| Structure | Menin-MLL FL inh |
| --- | --- |
| O=C(O)c1cc(-c2ccccc2)n[nH]1 | 3.8 |
| O=C(c1ccncc1)N1CCC2(CCCN(Cc3ccncc3)C2)CC1 | -4.3 |
| O=C(CN1CCNCC1)NC1CCCCC1 | -1.6 |
| CO[C@H]1COC(=O)[C@@H](CCSC)NC(=O)C/C=C\[C@@H](C)[C@H](OC)COC(=O)[C@@H](OCc2ccccc2)/C=C\[C@@H]1C | -0.9[11.7 µM] |
| Cc1nc2c(c(=O)n1Cc1ccco1)c1nc3ccccc3nc1n2Cc1ccccc1 | 4.2 |
| O=C(c1csnn1)N1CCC2(CC1)CCN(C(c1ccccc1)c1ccccc1)CC2 | -5.9 |
| O=c1[nH]c(=O)n([C@H]2C[C@H](O)[C@@H](CO)O2)cc1/C=C/Br | -0.7 |
| Cc1ccccc1NC(=O)COC(=O)c1cc(=O)c2ccccc2o1 | ? |
| CCN(CC)CCCC(C)n1c(-c2ccccc2)nc2c(NC3CCCCC3)nc(C)nc21 (stereo not given) | -4.9 |
| N#Cc1ccccc1-c1ccc2ncnc(NCc3cccs3)c2c1 | 3.4 |
| CC(=O)N1CCN(C)CC1 | -22.0 |

3 entries from above, arranged by their value in Menin-MLL FL inh, low to high.
SMILES | Menin-MLL FL inh
O=C(CN1CCNCC1)NC1CCCCC1 | -1.6
O=c1[nH]c(=O)n([C@H]2C[C@H](O)[C@@H](CO)O2)cc1/C=C/Br | -0.7
N#Cc1ccccc1-c1ccc2ncnc(NCc3cccs3)c2c1 | 3.4

The list is partial. The share of hits here may be higher or lower than overall.
